Six1-Eya2 inh: Six1/Eya2 interaction inhibition | AlphaScreen GST-Six1/His-Eya2 binding, biochemical; stronger effect = lower value; control for the full effect not named in the record | activity change, % (concentration not given with the values) | 360,000 compounds, 0.56% hits | AID 651725; in the data active = activity change below about -65%; inconclusive = about -30% to -65%; inactive = above about -30%; further: on the % scale 0 is the no-effect control and ±100 the full control effect
Target sequence (O00167 whole entry, looked up): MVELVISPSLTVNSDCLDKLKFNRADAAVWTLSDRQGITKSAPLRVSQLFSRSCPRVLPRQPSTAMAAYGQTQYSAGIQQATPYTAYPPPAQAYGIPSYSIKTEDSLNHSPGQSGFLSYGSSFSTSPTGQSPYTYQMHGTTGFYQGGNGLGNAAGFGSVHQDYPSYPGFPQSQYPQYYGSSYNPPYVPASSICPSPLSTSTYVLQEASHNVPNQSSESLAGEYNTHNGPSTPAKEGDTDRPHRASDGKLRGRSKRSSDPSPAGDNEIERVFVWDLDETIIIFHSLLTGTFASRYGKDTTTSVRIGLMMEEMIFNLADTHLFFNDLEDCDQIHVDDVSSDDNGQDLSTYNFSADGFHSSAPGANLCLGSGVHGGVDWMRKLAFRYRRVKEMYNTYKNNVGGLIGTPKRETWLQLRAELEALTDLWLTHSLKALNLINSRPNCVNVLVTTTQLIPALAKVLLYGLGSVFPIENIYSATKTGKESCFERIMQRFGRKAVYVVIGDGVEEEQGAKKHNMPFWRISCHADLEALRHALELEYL
Target sequence (Q15475 whole entry, looked up): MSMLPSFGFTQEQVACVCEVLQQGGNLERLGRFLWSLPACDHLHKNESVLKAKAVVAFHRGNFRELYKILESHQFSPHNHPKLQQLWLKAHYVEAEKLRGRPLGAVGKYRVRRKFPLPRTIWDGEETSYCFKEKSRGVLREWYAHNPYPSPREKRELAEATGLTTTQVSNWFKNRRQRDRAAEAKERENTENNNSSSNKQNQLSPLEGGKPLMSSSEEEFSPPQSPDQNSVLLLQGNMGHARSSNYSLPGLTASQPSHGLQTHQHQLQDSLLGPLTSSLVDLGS
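GST-Six1 + His-Eya2 (5X stock: 250/500 nM); Tris pH 8.0, 300 mM NaCl, 0.05% BSA, 0.02% Tween 20; GSH donor/Ni acceptor beads; 1 h 37 °C dark; AlphaScreen readout.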
TRPML1 agonist: activates the human TRPML1 channel; 410,000 compounds, 0.12% hits; activation, % (test concentration not listed); TRPML1-expressing cells, Ca2+ dye fluorescence, FDSS; host cell line not named in the record; reference of the full effect not given here; in the data active = activation above about 50%; inconclusive = about 30% to 50%; inactive = below about 30%; further: 0% is about no effect; the text of the record puts the active cut at 80%
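Tetracycline-induced TRPML1-DL cells are seeded and incubated overnight before loading with a no-wash Ca2+ dye and quencher. Agonist activity is taken from the 110 s fluorescence read following compound pin-transfer on an FDSS, before EC80 54-4 challenge.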
PINK1 expr mod: changes PINK1 expression | AID 624263 | Potency, µM (highest dose often 76.6 µM), without a hit: at the top dose activation (PINK1 increase), actives largely listed as activators | PINK1 immunofluorescence, high-content cytometry, 24 h | 410,000 compounds, 0.2% hits; active = well fitted activation curve with a large enough effect; inconclusive = small, poorly fitted or top-dose-only effect; inactive = flat fitted curve, though single readings scatter; cell line not stated here;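 further: potency means the concentration at half of the fitted maximal effect; % of control where 0% means no effect; nearly all actives have a fitted effect of over 65% in size; a mitochondrial uncoupler was the plate control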
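Cells are seeded, rested 12 hours, then given compound at five concentrations or DMSO for 24 hours. After fixation, blocking and antibody staining, PINK1 amount and mitochondrial localization are scored; CCCP serves as control.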
D2 PAM: positive allosteric modulators of human D2 dopamine receptor. P14416. DiscoveRx D2 beta-arrestin cells, luminescence, 90 min; 100% = 57 uM dopamine signal. potentiation, % (concentration not given with the values). 360,000 compounds, 0.23% hits. AID 624464; active = potentiation of 50% or more; inconclusive = 30% to 50%; inactive = 30% or less;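 further: tested on top of an EC20 dose of dopamine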
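D2 cells co-treated with compound plus 50 nM dopamine (EC20) for 90 min at 37 deg C to detect potentiation. Beta-arrestin recruitment was read as enzyme-fragment luminescence after 1 h at ambient temperature. Full response was set by 57 uM dopamine.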
CtBP-E1A inh: blocks the CtBP interaction with E1A | AlphaScreen GST-E1A/His-CtBP binding, 1536-well; stronger effect = lower value; control for the full effect not named in the record | activity change, % (concentration not given with the values) | 340,000 compounds, 0.49% hits; in the data active means activity change below about -65%; inconclusive means about -30% to -65%; inactive means above about -30%; further: on the % scale 0 is the no-effect control and ±100 the full control effect
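Steps: dispense buffer (Tris pH 8.0, NaCl 300 mM, TCEP 1 mM, BSA, Tween 20); add 5X protein mix (GST-E1A, His-CtBP, 125 nM each); pin 23 nL compound; 2 h at 37 °C, dark; add 5X beads (50 ug/mL); 1 h; read.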
D2 ag: human D2 receptor agonism in beta-arrestin assay; DiscoveRx PathHunter D2 beta-arrestin, luminescence, 90 min; 100% = 57 uM dopamine signal; P14416; activation, % (concentration not given with the values); 360,000 compounds, 0.084% hits; in the data active = activation above about 40%; inconclusive = about 15% to 40%; inactive = below about 15%; further: the text of the record calls up to 30% inactive
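DiscoveRx PathHunter D2 beta-arrestin cells (2,100/well) attached overnight, then compound-stimulated 90 min at 37 C in HBSS/10 mM HEPES/0.1% Tween-20 buffer; beta-galactosidase complementation read by luminescence after 1 h at ambient temperature. Dopamine 57 uM final (EC100) as control.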
* hit, by the source's call; u = inconclusive; x = not tested or not shown; & = joins results of further samples; [ ] = remark or other dose.

canonical_smiles | Six1-Eya2 inh | TRPML1 agonist | PINK1 expr mod | D2 PAM | CtBP-E1A inh | D2 ag
Cc1cccc(C(CC(=O)NCc2ccco2)c2ccccc2)c1O (stereo not drawn) | -1 | 2.0 | 1.4% | -9 | x | -1.4
CCOC(=O)/C(C#N)=C/c1cn(CCC(=O)O)nc1-c1ccc(Br)cc1 | -5 | 0.1 | 1.2% | -9 | -3 | -1.3
C/C(=N\NC(=O)c1ccccc1O)C1C(=O)c2ccccc2C1=O | 0 | -0.3 | x | 7 | 1 | -1.8
C/C=C(\C)C(=O)N1CC2(CC(c3cccc(NC(=O)CCCCC)c3)=NO2)C[C@@H]1C(N)=O (stereo partly drawn) | -23 | -0.8 | 0.8% | 0 | -9 | -0.1
CC(=O)C1CCC2C3CCC4CC(=O)CCC4(C)C3C(C)(O)CC12C (stereo not drawn) | 1 | 0.0 | -2.5% | -12 | 5 | -1.1
CC(C)C(=O)Nc1c(-c2cccc(Cl)c2)c(=O)c2ccccc2n1C | 7 | 0.2 | 1.4% | -17 | x | 1.7
CCc1nc2ccc(C(=O)NCCNC(C)=O)cn2c1N(C)CCCc1ccccc1 | 3 | -0.1 | 1.7% | 3 | -23 | 0.4
CC1CCN(Cc2nc3c(c(=O)n(C)c(=O)n3C)n2CCCc2ccccc2)CC1 | 5 | 0.2 | 9.1% | 3 | 9 | -3.4
Cc1c(Cl)cccc1NC(=S)NCC(c1cccnc1)N(C)C (stereo not drawn) | 5 | -0.2 | 0.0% | -6 | 6 | -6.7
CN(C)/C=C1\N=C(c2ccc(Cl)cc2Cl)OC1=O | -1 | 0.4 | 1.0%[38.3 µM] | 8 | 1 | 2.0
CO/N=C/c1cn(-c2ccc(Cl)cc2)nn1 | 7 | 0.5 | 0.8% | -13 | 4 | -5.2
O=C(CCn1c(=O)oc2ccccc21)N1CCN(c2ccccc2F)CC1 | 1 | -0.8 | 29%[38.3 µM] | -10 | 7 | -3.1
OC(c1ccccc1)C(NCCNCc1ccccc1)c1ccccc1 (stereo not drawn) | 5 | 0.2 | 0.8% | -12 | 2 | -1.6
Oc1ccccc1Nc1ncnc2c1oc1ccccc12 | 1 | -1.7 | 4.4% | 2 | 4 | 0.0
COc1ccc(CCNS(=O)(=O)c2c(N)n(C)c(=O)n(C)c2=O)cc1OC | 3 | -0.1 | 0.0% | 4 | -22 | -1.3
COc1ccc(C(=O)Nc2nc3ccccc3s2)cc1OC | 2 | -0.3 | -0.1% | -17 | -1 | 0.1
COc1cccc(C(=O)Cn2c(=O)n(CC3CCCO3)c(=O)c3ccccc32)c1 (stereo not drawn) | 0 | 1.7 | 0.4% | -1 | -1 | -5.2
CC(=O)Nc1ccc(NC(=O)COc2cc(O)c3c(c2)OC(C)(C)CC3=O)cc1 | 1 | x | 0.7% | -9 | -11 | -3.0
COc1cc([N+](=O)[O-])c(OC)cc1SCc1n[nH]c(=S)n1-c1ccc(F)cc1 | -6 | 0.6 | 0.1% | -16 | 4 | -8.8
Cc1cc(C)n(CCO)c(=O)n1 | 1 | 0.4 | -3.0%[38.3 µM] | 5 | 5 | -3.7
Cc1cc2oc(=O)cc(CN3CCCCCCC3)c2cc1Cl | -6 | -0.6 | 0.0% | -4 | 0 | -1.4
CCc1ccc(N(C(=O)c2ccoc2C)C(C(=O)NC2CCCC2)c2ccc(OC)cc2)cc1 (stereo not drawn) | -4 | -0.3 | x | -11 | -4 | -4.5
COc1ccc(/C=N/Nc2cc(OC)ncn2)cc1 | -2 | 0.5 | 1.8% | -1 | 3 | 0.4
Cc1sc2ncn(CC(=O)NCC(=O)N3CCN(c4ccccc4F)CC3)c(=O)c2c1C | 5 | -0.6 | 9.2% | -6 | 0 | -1.1
CCOCCc1nnc(NC(=O)c2cccc(F)c2)s1 | 4 | -0.9 | -0.7% | 6 | 18 | 0.8
COCc1cc(=O)n2[nH]c(-c3cccc(Br)c3)cc2n1 | -3 | 0.1 | -2.7% | -6 | 3 | -0.8
Cc1ccsc1C(=O)N1CC(=O)Nc2ccccc21 | -5 | -0.2 | 4.6% | -3 | -5 | -1.3
Cc1onc(-c2ccccc2)c1C(=O)N/N=C/c1ccco1 | -16 | 2.3 | -1.1% | -1 | -2 | -3.6
Cc1ccc(NC(=O)CS(=O)CC(=O)NC2CCN(Cc3ccccc3)CC2)c(C)c1 (stereo not drawn) | 1 | 1.8 | -2.3% | -21 | 2 | -2.3
NC(=O)N/N=C/c1coc2ccc3ccccc3c2c1=O | 14 | 1.3 | -1.0% | -1 | -19 | -2.4
Nc1scc2c(C(=O)N/N=C/c3ccc(Cl)cc3)nn(-c3ccccc3)c(=O)c12 | -22 | -0.4 | 1.2% | 3 | -25 | -0.9
CCCCCCNS(=O)(=O)c1ccccc1Br | 22 | 6.8&2.1 | 6.6% | -8 | 15 | -1.3
COc1ccc(C2CC(C(F)(F)F)n3ncc(C(=O)O)c3N2)cc1OC (stereo not drawn) | 11 | 0.3 | -1.3% | -20 | 4 | 2.1
COc1ccc(NC(=O)c2ccco2)cc1N | 0 | -0.5 | 1.8% | 5 | -1 | 7.3
COc1ccc(-c2ccc(/C=N/NC(=O)c3cccnc3)o2)c([N+](=O)[O-])c1 | 5 | 2.3 | 11% | 1 | 11 | -0.8
CCOc1ccccc1NC(=O)c1cc(-c2ccncc2)nc2c(Cl)cccc12 | u | 3.3 | 4.6% | -1 | u | 2.7
NS(=O)(=O)c1cccc(NC(=O)COC(=O)Cn2cnc3ccccc32)c1 | 0 | 0.0 | 2.8% | -6 | 0 | 4.5
CC(=O)c1sc2nc(SCC(=O)N3CCCCC3)[nH]c(=O)c2c1C | -20 | 0.3 | -1.4% | -4 | -2 | 0.0
CCc1sc(C(=O)NC2CCN(C)CC2)cc1Br | 26 | -0.1 | 3.4% | -33 | 0 | -0.9
Cc1cc(C)cc(NC(=O)C(OC(=O)c2ccc(NC(=O)CC#N)cc2)c2ccccc2)c1 (stereo not drawn) | -6 | 0.6 | 11% | -4 | 3 | -2.4
COc1ccc(CN2CCNC(=O)C2CC(=O)NC2CCCCC2)c(OC)c1 (stereo not drawn) | -1 | -0.5 | 0.7% | -19 | 0 | -4.8
COCCCN1C(=O)C(CC(=O)NC(c2ccccc2)c2ccccc2)CC(C(=O)N(C(C)C)C(C)C)=C1C (stereo not drawn) | 0 | -0.5 | 0.0% | 2 | 5 | -1.8
COC(=O)c1cn(-c2ccccc2)nc1-c1ccc(OC)cc1 | 9 | 0.2 | 2.9% | -4 | x | -5.6
CC(=O)Nc1ccc(Nc2nc3ccccc3nc2NS(=O)(=O)c2ccccc2)cc1 | -1 | 0.1 | -0.7% | 3 | -1 | -1.9
Cc1cc(C)cc(-n2c(SC(C)C(=O)NCc3ccc4c(c3)OCO4)nc3ccccc3c2=O)c1 (stereo not drawn) | -14 | 0.8 | 3.1% | -9 | -16 | -3.0
COc1ccc(-c2cc(C(=O)N/N=C(\C)c3cccnc3)c3cc(C)ccc3n2)cc1OC | -7 | 0.4 | -1.0% | -4 | -2 | 3.7
O=C(CCN1c2ccccc2Sc2ccccc21)Oc1ccccc1 | 15 | 1.2 | 3.5% | -3 | 3 | 1.4
CCOC(=O)c1sc(N/N=C/c2cccc(C)c2)nc1C | 4 | 0.1 | 8.0% | 10 | 3 | -3.8
Cc1c(O)cccc1C(=O)N[C@@H](CSc1ccccc1)[C@H](O)CN1C[C@H]2CCCC[C@H]2C[C@H]1C(=O)NC(C)(C)C | -7&1 | 0.1&0.5 | u | -1&-5 | -1&7 | -3.6&8.8
O=C(NCc1cc(C(F)(F)F)ccc1F)C1CCC(=O)N(C2CC2)C1 (stereo not drawn) | 1 | -0.4 | 1.7% | 1 | 10 | -2.3
CC(/C=N/NC(=O)c1nnn(-c2nonc2N)c1CN(C)C)=C\c1ccco1 | -17 | 1.2 | -1.7% | -5 | -26 | 0.8
COc1ccc(N(C(=O)c2snc(C(N)=O)c2N)C(C(=O)NCC2CCCO2)c2ccc3ncccc3c2)cc1OC (stereo not drawn) | 15 | 0.1 | 1.1% | 1 | 14 | -0.1
O=C(CSc1nnc2ccccn12)NNC(=O)c1cccc([N+](=O)[O-])c1 | -3 | 0.1 | 1.0% | -1 | 1 | -1.1
COC(=O)CCC(=O)N(CCN(C(=O)CCC(=O)OC)c1ccccc1)c1ccccc1 | 5 | -0.2 | 3.1% | -7 | 7 | -1.2
Cn1cccc1/C=C1\Cc2ccccc2C1=O | -7 | 2.3 | 3.3% | -6 | 0 | -4.9
COc1ccc(NC(=O)C[C@H]2C(=O)N(c3ccc(OC)cc3)C[C@@H]2CSC)cc1 | -3 | -0.5 | 2.1% | 3 | -8 | -7.7
CCOc1ccccc1N(CC(=O)NCCc1ccc(OC)cc1)S(=O)(=O)c1ccc(C)cc1 | -2 | 2.6 | -0.8% | -12 | -3 | -6.9
Cc1oc(-c2ccccc2F)nc1CS(=O)(=O)CC(=O)NCc1ccco1 | 1 | 0.2 | 0.4% | -8 | 0 | -1.1
O=C(O)Cc1sc(Nc2cccc3ccccc23)nc1-c1ccccc1 | 0 | -0.9 | 1.9% | -6 | x | -4.2
CCCN(CC(=O)Nc1ccccc1OC)C(=O)c1ccc(=O)[nH]c1 | 5 | -0.4 | -0.4% | -5 | 10 | -0.9

Later entries:
canonical_smiles | Six1-Eya2 inh | TRPML1 agonist | PINK1 expr mod | D2 PAM | CtBP-E1A inh | D2 ag
CCCN(CC(=O)Nc1ccc(F)c(F)c1F)C(=O)Cc1ccc(S(=O)(=O)N2CCOCC2)s1 | -5 | -0.7 | 4.6% | 5 | x | -2.2
Cc1ccnc(SCCn2c(N3CCN(Cc4ccccc4)CC3)nc3c2c(=O)[nH]c(=O)n3C)n1 | -2 | -0.7 | 1.8% | -8 | 1 | -4.7
COc1ccccc1NC(=O)CN1CCC(c2nc3ccc(C)cc3[nH]2)CC1 | -14 | 2.7 | 3.7% | -6 | -1 | -3.4
O=C1CN(C(=O)COC(=O)CCNS(=O)(=O)c2ccc(Cl)cc2)c2ccccc2N1 | 5 | 0.9 | 0.2% | -3 | 1 | 2.1
CCCCc1c(C)nc(N2CCCC2)[nH]c1=O | 1 | 1.8 | -2.2% | -2 | -1 | -2.5

By substructure, the entries above with a Cl atom
canonical_smiles | Six1-Eya2 inh | TRPML1 agonist | PINK1 expr mod | D2 PAM | CtBP-E1A inh | D2 ag
CC(C)C(=O)Nc1c(-c2cccc(Cl)c2)c(=O)c2ccccc2n1C | 7 | 0.2 | 1.4% | -17 | x | 1.7
Cc1c(Cl)cccc1NC(=S)NCC(c1cccnc1)N(C)C (stereo not drawn) | 5 | -0.2 | 0.0% | -6 | 6 | -6.7
CN(C)/C=C1\N=C(c2ccc(Cl)cc2Cl)OC1=O | -1 | 0.4 | 1.0%[38.3 µM] | 8 | 1 | 2.0
CO/N=C/c1cn(-c2ccc(Cl)cc2)nn1 | 7 | 0.5 | 0.8% | -13 | 4 | -5.2
Cc1cc2oc(=O)cc(CN3CCCCCCC3)c2cc1Cl | -6 | -0.6 | 0.0% | -4 | 0 | -1.4
Nc1scc2c(C(=O)N/N=C/c3ccc(Cl)cc3)nn(-c3ccccc3)c(=O)c12 | -22 | -0.4 | 1.2% | 3 | -25 | -0.9
CCOc1ccccc1NC(=O)c1cc(-c2ccncc2)nc2c(Cl)cccc12 | u | 3.3 | 4.6% | -1 | u | 2.7
O=C1CN(C(=O)COC(=O)CCNS(=O)(=O)c2ccc(Cl)cc2)c2ccccc2N1 | 5 | 0.9 | 0.2% | -3 | 1 | 2.1

Screening data (PubChem)
